From PubChem BioAssay
PINK1 modulator = PINK1 expression modulation; AID 624263; PINK1 immunofluorescence, high-content cytometry, 24 h; hit rate 0.2% among 410,000; Potency, µM (highest dose often 76.6 µM), for inactives: top-dose activation (PINK1 increase), hits mostly activators; active = well fitted activation curve with a large enough effect; inconclusive = small, poorly fitted or top-dose-only effect; inactive = flat fitted curve, though single readings scatter; cell line not stated here;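 further: potency means the concentration at half of the fitted maximal effect; % of control where 0% means no effect; nearly all actives have a fitted effect of over 65% in size; a mitochondrial uncoupler was the plate control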
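Fluorescence from anti-PINK1 antibody, together with nuclear and cell stains, was scanned on a laser-scanning cytometer. Before staining, stable-line cells were incubated 24 hours with compounds at 5 concentrations; primary antibody 12 h at 10 degrees C.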
TRPV1 potentiator = potentiators of human vanilloid receptor 1 (TRPV1); TRPV1-expressing cells, Fluo-8 calcium influx, capsaicin EC20 potentiation; host cell line not named in the record; control for the full effect not named in the record; Q8NER1; potentiation, % at 8.33 µM; hit rate 0.02% among 320,000; active means potentiation above 80%; inconclusive means 30% to 80%; inactive means below 30%; further: 0% is about no effect
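Cells expressing TRPV1 were dye-loaded with Fluo-8 and read kinetically: 10 s baseline, 3 min after compound (agonist portion), then 2 min after EC20 capsaicin (allosteric enhancer portion). Calcium-bound dye fluorescence at 480/520 nm.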
TRPML1 ag = agonists of human TRPML1 channel; TRPML1-expressing cells, Ca2+ dye fluorescence, FDSS; host cell line not named in the record; reference of the full effect not given here; hit rate 0.12% among 410,000; Q9GZU1; activation, % (concentration not given with the values); in the data active = activation above about 50%; inconclusive = about 30% to 50%; inactive = below about 30%; further: 0% is about no effect; the text of the record puts the active cut at 80%
Target sequence (Q9GZU1 whole entry, looked up): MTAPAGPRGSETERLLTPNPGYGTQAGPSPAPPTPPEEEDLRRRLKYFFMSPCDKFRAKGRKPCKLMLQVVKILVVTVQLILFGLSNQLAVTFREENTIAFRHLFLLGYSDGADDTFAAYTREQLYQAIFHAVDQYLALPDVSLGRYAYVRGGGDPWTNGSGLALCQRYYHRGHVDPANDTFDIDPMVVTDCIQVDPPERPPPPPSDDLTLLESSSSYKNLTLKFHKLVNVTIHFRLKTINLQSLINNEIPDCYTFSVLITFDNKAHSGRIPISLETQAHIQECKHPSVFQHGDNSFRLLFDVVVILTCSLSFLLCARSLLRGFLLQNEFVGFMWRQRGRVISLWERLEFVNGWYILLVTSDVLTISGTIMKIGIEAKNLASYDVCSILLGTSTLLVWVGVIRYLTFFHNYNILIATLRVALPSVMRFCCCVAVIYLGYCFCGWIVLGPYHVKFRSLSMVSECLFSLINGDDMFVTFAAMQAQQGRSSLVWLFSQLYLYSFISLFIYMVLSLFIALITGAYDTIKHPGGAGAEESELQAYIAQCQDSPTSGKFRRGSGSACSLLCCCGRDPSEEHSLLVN
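Calcium fluorescence on an FDSS kinetic reader gave the read-out. Tet-induced TRPML1-DL cells were plated overnight, dye-loaded (Ca8 with quencher, 45-90 min, room temperature, dark), then read 110 s after compound addition, and again 110 s after 4uM final 54-4 (EC80).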
TRPML1 inh = blocks the human TRPML1 channel; Q9GZU1; TRPML1-inducible cells, Ca2+ dye fluorescence, FDSS; stronger effect = lower value; inhibition of EC80 agonist-evoked calcium signal; activity change, negative = inhibition, % (concentration not given with the values); hit rate 0.02% among 390,000; AID 624415; in the data active means activity change below about -50%; inconclusive means about -30% to -50%; inactive means above about -30%;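 further: stimulus is agonist 54-4 at its EC80 concentration; on the % scale 0 is the no-effect control and ±100 the full control effect; compound concentration not given in the record; the text of the record puts the active cut at -80%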
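TRPML1-DL cells, Tet-induced overnight (~16 h, 37 °C) at 1,500 cells/well, were loaded with Ca8 no-wash dye plus quencher for 45-90 min at room temperature. Compounds were pinned during FDSS kinetic reading; agonist 54-4 at EC80 (4 uM final) then added.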
ClpP mod = qHTS Assay for Activators of ClpP; purified B. subtilis ClpP, FRET peptide cleavage, 20 min; hit rate 1.9% among 340,000; ATP-dependent Clp protease proteolytic subunit (Bacillus subtilis (strain 168)), P80244; Potency, µM (titrated, usually from 57.5 µM), inactives show at the top dose activity change, negative = active; active = well fitted falling curve with a large enough effect; inconclusive = small, poorly fitted or top-dose-only effect; inactive = no such curve, though single readings can be large or run the other way; further: potency means the concentration at half of the fitted maximal effect; the source files actives as falling curves though it sought activators and does not explain the sign; nearly all actives have a fitted effect of over 65% in size; many hits overshoot -100%
Target sequence (P80244 whole entry, looked up): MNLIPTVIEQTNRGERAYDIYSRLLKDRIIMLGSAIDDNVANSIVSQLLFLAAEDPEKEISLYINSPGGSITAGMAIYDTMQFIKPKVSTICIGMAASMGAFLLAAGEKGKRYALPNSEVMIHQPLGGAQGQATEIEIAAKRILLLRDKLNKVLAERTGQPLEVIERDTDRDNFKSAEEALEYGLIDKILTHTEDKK
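ClpP 10 microg/mL final, pH 8 Tris/KCl buffer with BSA, glycerol, Tween-20; compound pinned in; FRET-FV substrate; RT 20 min; Ex320/Em430; ΔFRET vs ADEP 5.8 microM, DMSO, no enzyme.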
Menin MLL FP FL = inhibitors of human menin-MLL interaction, wild-type MLL peptide. Fluorescence polarization, fluorescein-MLL peptide displacement from menin. FP activity change, % at 61.4 µM. 290,000 tested, under 10 active. AID 1766; inconclusive = falling polarisation curve, or a change in total fluorescence; inactive = total fluorescence flat and polarisation flat or rising; no compound was filed as active; the % refers to the polarisation; negative = inhibition;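 further: % of control where 0% means no effect; inhibitors lower the polarisation; unlabelled MLL peptide was the positive control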
Sfp PPTase inh = Sfp phosphopantetheinyl transferase inhibition. hit rate 3.5% among 310,000. Biochemical Sfp PPTase activity, qHTS. Potency, µM, inactives show max response, negative = inhibition, usual class: inhibitors. Q9F4F7; active means well fitted inhibition curve with a large enough effect; inconclusive means small, poorly fitted or top-dose-only effect, or another doubt; inactive means no such curve, though single readings can be large or run the other way;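 further: the enzyme is Sfp with the accession as filed and its product quenches rhodamine fluorescence; potency means the concentration at half of the fitted maximal effect; 0% = enzyme reaction without inhibitor and -100% = no enzyme wells; top concentration of the series not given in the record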
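Step 1, compound plus 15 nM Sfp-PPTase, 15 min, room temperature. Step 2, add rhodamine-CoA (5 uM) and BHQ-2-YbbR (12.5 uM). Step 3, read 525/598 nm fluorescence at 0 and 30 min.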
An asterisk follows results filed as active; ? = inconclusive; nt = no result given. An unsorted share of the library; any-hit rate near 4.4%.

SMILES | PINK1 modulator | TRPV1 potentiator | TRPML1 ag | TRPML1 inh | ClpP mod | Menin MLL FP FL | Sfp PPTase inh
O=C(COC(=O)c1ccc([N+](=O)[O-])o1)NC12CC3CC(CC(C3)C1)C2 | -2.4% | nt | -0.2 | 22.3 | nt | nt | nt
CC1=C(C(=O)OC(C)C)C(c2cccc(F)c2)N2C(=O)C(C)SC2=N1 (stereo not given) | -1.0% | 2.8 | 0.7 | -9.7 | -1.2% | -1.0 | 14.3%
Cc1ccc(OCCn2c(=S)[nH]c3ccccc32)c(C(C)C)c1 | 5.9% | -20.3 | 1.9 | -8.5 | 0.1% | -1.6 | 0.9%
CC(=O)c1ccc(N2CCN(C(=O)CCS(=O)(=O)c3ccc4c(c3)CCN4C(C)=O)CC2)cc1 | -0.4% | 3.3 | -0.9 | -4.0 | -6.8% | nt | 4.5%
O=C(N/N=C/c1ccco1)c1cc(-c2ccc3ccccc3c2)n[nH]1 | 0.8% | -2.0 | 1.4 | -10.2 | -3.6% | 0.2 | -4.7%
Cc1cc[n+](-c2nc3ccccc3nc2[N-]S(=O)(=O)c2cccs2)cc1C | 0.0% | 4.2 | -0.4 | -2.8 | 8.91µM* | 4.6 | -3.4%
CCOC(=O)C1CCCN(C(=O)c2ccc(OC(C)=O)cc2)C1 (stereo not given) | 3.8% | 24.7 | 0.3 | 3.5 | 0.9% | 1.3 | 16.9%
C=CCOc1ccccc1CN1CCC(n2nccc2NC(=O)C2CCOC2)CC1 (stereo not given) | -0.4% | -9.5 | 0.0 | 4.0 | -7.2% | nt | 21.5%
CC(=O)Nc1ccc(OCCOc2ccccc2C(C)=O)cc1 | -2.1% | -5.6 | -0.1 | -23.5 | nt | -5.8 | 12.0%
Cc1ccc(NC(=S)c2ccc3ccccc3n2)c(C)c1 | 4.8% | 10.8 | -0.5 | 7.2 | nt | -0.3 | 22.4µM*
COc1ccc(C(=O)N2CCN(C(=O)Cc3ccccc3)CC2)cc1 | 1.8% | -3.7 | -0.5 | -19.2 | nt | -5.3 | -2.4%
COc1ccc(CCNC(=O)CN(c2ccccc2OC)S(C)(=O)=O)cc1OC | nt | -2.5 | -0.4 | 2.9 | 0.6% | 1.1 | 4.7%

Fetched by compound from the list above, three records:
SMILES | PINK1 modulator | TRPV1 potentiator | TRPML1 ag | TRPML1 inh | ClpP mod | Menin MLL FP FL | Sfp PPTase inh
O=C(COC(=O)c1ccc([N+](=O)[O-])o1)NC12CC3CC(CC(C3)C1)C2 | -2.4% | nt | -0.2 | 22.3 | nt | nt | nt
CC(=O)Nc1ccc(OCCOc2ccccc2C(C)=O)cc1 | -2.1% | -5.6 | -0.1 | -23.5 | nt | -5.8 | 12.0%
COc1ccc(CCNC(=O)CN(c2ccccc2OC)S(C)(=O)=O)cc1OC | nt | -2.5 | -0.4 | 2.9 | 0.6% | 1.1 | 4.7%

(further entries)
SMILES | PINK1 modulator | TRPV1 potentiator | TRPML1 ag | TRPML1 inh | ClpP mod | Menin MLL FP FL | Sfp PPTase inh
O/N=C(\Cc1cscn1)c1ccc(O)cc1O | nt | 1.2 | -0.6 | -2.8 | -6.9% | 4.7 | 13.7%
Cc1csc(NC(=O)C2CCCCC2C(=O)O)n1 (stereo not given) | -0.1% | -10.0 | 0.4 | -3.6 | -1.3% | 0.0 | 13.3%
CCOC(=O)c1ccc(CN2Cc3ccccc3C2=O)cc1 | 3.2% | ? | -1.2 | 3.5 | 13.2% | 5.9 | 3.5%
COCCCNc1ncnc2c1nc1n2CCCC1 | -0.9% | 7.5 | 0.1 | ? | -5.7% | -5.1 | 3.0%
Cc1ccc(S(=O)(=O)NCCc2nnc3ccc(NCCCOC(C)C)nn23)cc1 | 0.8% | 3.7 | 0.3 | -15.3 | -7.5% | -0.7 | 22.4%
C/C(=N/NC(=O)CNC(=O)/C=C/c1ccccc1)c1ccco1 | -0.3% | 2.7 | 0.5 | -7.8 | 0.6% | nt | 5.7%
c1cc2[nH]c3ccncc3c2cn1 | 0.8% | nt | 0.5 | 6.2 | -22.4% | nt | nt
COc1ccc(C(=O)NN/C=C/C(=O)c2ccc(Br)cc2)cc1 | 4.7% | nt | -0.4 | 5.5 | -5.2% | nt | nt
O=C(CCc1ccccc1)NCC1OCCc2ccccc21 (stereo not given) | 1.4% | -15.0 | -0.4 | 0.9 | nt | -4.6 | 2.4%
CCn1c(=O)c2cc(C(=O)NCc3cccs3)sc2c2ccccc21 | 2.9% | -0.8 | 1.1 | 1.0 | 4.2% | -2.2 | 5.1%
NC(=O)c1cn(-c2ccccc2)nc1-c1cccnc1 | 1.5% | -0.6 | -0.7 | -14.5 | -3.7% | 1.6 | 13.2%
COC(=O)[C@H](CCSC)NC(=O)Nc1ccc(S(N)(=O)=O)cc1 | 0.3% | 3.5 | nt | nt | -1.0% | 5.4 | 16.0%
COc1ccccc1N(CC(=O)N1CCCCCC1)S(=O)(=O)c1ccc(C)cc1 | 2.4% | -14.2 | -1.6 | -7.5 | 0.4% | -0.4 | 20.8%
CCCCn1c(-c2cccc(Br)c2)nc2cc3[nH]c(=O)c(C(C)C)nc3cc21 | -0.3% | -5.2 | 2.4 | -18.2 | 4.1% | ? | -23.9%
O=[N+]([O-])c1ccccc1Nc1ccccc1 | -0.9% | 3.0 | 0.4 | 17.4 | 0.4% | -2.1 | 19.4%
Cc1ccc(S(=O)(=O)Nc2ccc3ccccc3n2)cc1 | 0.3% | -2.4 | -0.1 | -1.7 | -2.2% | -7.5 | 10.9%
CCc1ccccc1Nc1ncnc2c1cnn2-c1ccc(Cl)cc1 | 3.3% | nt | 0.3 | -18.5 | 31.6µM* | nt | nt
O=c1cc(CN2CCOCC2)nc(C2CC2)[nH]1 | 2.4% | 11.5 | -0.8 | -0.4 | 0.3% | -0.7 | 3.0%
COc1ccc(NC(=S)NC2CCN(Cc3ccccc3)CC2)cc1OC | -1.0% | -23.8 | 0.6 | 22.9 | nt | 0.7 | 12.7%
CCC(C)(C)n1nnnc1C(c1cc(OC)ccc1OC)N1CCC(C(N)=O)CC1 (stereo not given) | -0.3% | 22.7 | 1.1 | -12.6 | -3.1% | 1.8 | -5.4%
Cc1csc(NC(=O)c2nc(-c3ccccc3)n(-c3ccccc3)n2)n1 | -1.7% | -18.7 | -1.4 | -2.7 | -2.3% | 0.7 | -6.4%
COC(=O)c1ccc(C2c3[nH]c4ccccc4c3C[C@H]3C(=O)N(C4CC4)CC(=O)N23)cc1 (stereo not given in full) | 1.7% | 14.0 | 1.6 | 8.2 | -0.4% | -0.1 | -0.2%
COc1ccc2c(Sc3ccccc3)c(C(=O)NCCCN3CCCCC3)[nH]c2c1 | 3.1% | nt | 2.3 | -4.6 | -7.5% | nt | nt
Cc1ccc(S(=O)(=O)N2CCC(C(=O)OCC(=O)N(C)C3CCS(=O)(=O)C3)CC2)cc1C (stereo not given) | -4.6% | 28.2 | 0.5 | -2.6 | -16.0% | nt | nt
O=C(Nc1ccc(Cl)cc1)Nc1ccccc1NS(=O)(=O)c1cccs1 | ? | 0.1 | -0.3 | -1.5 | nt | 3.6 | -6.3%
Cc1ccnc(NC(=S)N2CCN(c3cccc(C(F)(F)F)c3)CC2)c1 | 4.7% | 3.0 | 2.2 | 28.6 | nt | -1.2 | 2.51µM*
COc1ccc(S(=O)(=O)N(C)c2ccc(C(=O)NCc3ccco3)cc2)cc1OC | -3.2% | 2.1 | 0.6 | -0.9 | 2.1% | nt | 4.8%
CCCS(=O)(=O)NC(=O)C1(C)CCCN(C(=O)c2nc3ccccc3s2)C1 (stereo not given) | -0.4% | nt | -1.0 | nt | -0.5% | nt | nt
CCN1CCC(N2CCN(c3ccc(F)cc3)CC2)CC1 | -1.7% | ? | 0.3 | -12.1 | -0.2% | 0.5 | 5.4%
CC(=O)Nc1ccc(S(=O)(=O)NCCc2csc(-c3cccnc3)n2)cc1 | -1.0% | 4.7 | -0.4 | 5.6 | -23.2% | nt | 7.5%
CC(=O)Nc1ccc(NC(=O)COC(=O)c2cc(S(=O)(=O)N3CCCC3)ccc2O)cc1 | 2.0% | nt | -0.5 | 3.5 | nt | nt | nt
CS(=O)(=O)c1ccc(C(=O)OCC(=O)NCC2CCCO2)cc1[N+](=O)[O-] (stereo not given) | -1.1% | nt | -0.5 | nt | -2.9% | nt | nt
COc1ccc(-n2cc(C(=O)O)c3ccccc3c2=O)cc1 | -2.3% | 11.9 | -0.8 | 12.8 | -12.6% | 1.6 | 9.4%
O=C(c1cc2c(s1)-c1ccccc1OC2)N1CCN(c2ccccn2)CC1 | 5.1% | 16.2 | 0.6 | 3.3 | -14.6% | -0.1 | -3.5%
COc1ccccc1OC(=O)c1ccc(S(=O)(=O)N(C)C)cc1 | 0.5% | 4.6 | -0.5 | 1.0 | -0.5% | -0.1 | -5.2%
CCOc1ccc(-n2ccnc(SCC(=O)NCc3cccc(OC)c3)c2=O)cc1 | 0.6% | -11.5 | -0.1 | -9.0 | -10.5% | nt | nt

Sfp PPTase inh, hit marks shown above.
| structure | PINK1 modulator | TRPML1 inh | Menin MLL FP FL | Sfp PPTase inh |
| --- | --- | --- | --- | --- |
| Cc1ccc(NC(=S)c2ccc3ccccc3n2)c(C)c1 | 4.8% | 7.2 | -0.3 | 22.4µM* |
| Cc1ccnc(NC(=S)N2CCN(c3cccc(C(F)(F)F)c3)CC2)c1 | 4.7% | 28.6 | -1.2 | 2.51µM* |

(next part)
SMILES | PINK1 modulator | TRPV1 potentiator | TRPML1 ag | TRPML1 inh | ClpP mod | Menin MLL FP FL | Sfp PPTase inh
Cc1cc2cc(CN(Cc3ccc4c(c3)OCO4)C(=O)c3cnccn3)c3nnnn3c2cc1C | 1.5% | -6.6 | 0.4 | 15.0 | -8.6% | 4.8 | 3.3%
c1ccc(Nc2nc(-c3ccccn3)cs2)cc1 | 4.1% | -7.4 | 0.1 | 16.8 | -22.6% | 0.7 | ?
CN(C)c1cc(-c2ccc(Br)cc2)oc(=O)c1Cl | -0.2% | -33.0 | -0.2 | -1.0 | 0.7% | 3.9 | -11.9%
Cn1c(=O)c2ccccc2n2c(=S)[nH]nc12 | 3.6% | 1.6 | -0.1 | 1.2 | nt | 2.9 | 50.1µM*
